# Screens from PubChem BioAssay.
# HSV replic up – enhancers of HSV replication in host cells, fold increase, host cell viability | maximum fold increase | hit rate 0.005% among 220,000 | HSV replication augmentation in cells;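 active = peak rise of 1.5-fold or more in the series; tested in PC3 cells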;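 note: first round at 10 µM; read as green reporter fluorescence; hits show the peak of a series up to 25 µM; 1 = signal of infected wells without compound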
# Insulin prom inh – inhibitors of insulin promoter-driven GFP, primary screen, imaging, TRM-6 cells (human fetal islet line), eGFP reporter, cell count; hit rate 0.9% among 130,000; reporter expression induced with tamoxifen; AID 1273, 2008; inhibition, % at 2 µM;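 active = inhibition above the mean plus 3 SD, with well images judged a real hit on visual review, cut at about 60% in these data, passing the limit was not always enough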
# PKD1 inh – inhibitors of human PKD1 kinase, biochemical, fluorescence polarization; Serine/threonine-protein kinase D1 (Homo sapiens), Q15139; inhibition, %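 (about 10 µM by stock and volumes)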; PKD1 kinase fluorescence polarization assay; hit rate 0.056% among 200,000;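 active = inhibition of 50% or more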;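 note: controls were vehicle for no effect and a reference inhibitor for full effect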
# Target sequence (Q15139 whole entry, looked up): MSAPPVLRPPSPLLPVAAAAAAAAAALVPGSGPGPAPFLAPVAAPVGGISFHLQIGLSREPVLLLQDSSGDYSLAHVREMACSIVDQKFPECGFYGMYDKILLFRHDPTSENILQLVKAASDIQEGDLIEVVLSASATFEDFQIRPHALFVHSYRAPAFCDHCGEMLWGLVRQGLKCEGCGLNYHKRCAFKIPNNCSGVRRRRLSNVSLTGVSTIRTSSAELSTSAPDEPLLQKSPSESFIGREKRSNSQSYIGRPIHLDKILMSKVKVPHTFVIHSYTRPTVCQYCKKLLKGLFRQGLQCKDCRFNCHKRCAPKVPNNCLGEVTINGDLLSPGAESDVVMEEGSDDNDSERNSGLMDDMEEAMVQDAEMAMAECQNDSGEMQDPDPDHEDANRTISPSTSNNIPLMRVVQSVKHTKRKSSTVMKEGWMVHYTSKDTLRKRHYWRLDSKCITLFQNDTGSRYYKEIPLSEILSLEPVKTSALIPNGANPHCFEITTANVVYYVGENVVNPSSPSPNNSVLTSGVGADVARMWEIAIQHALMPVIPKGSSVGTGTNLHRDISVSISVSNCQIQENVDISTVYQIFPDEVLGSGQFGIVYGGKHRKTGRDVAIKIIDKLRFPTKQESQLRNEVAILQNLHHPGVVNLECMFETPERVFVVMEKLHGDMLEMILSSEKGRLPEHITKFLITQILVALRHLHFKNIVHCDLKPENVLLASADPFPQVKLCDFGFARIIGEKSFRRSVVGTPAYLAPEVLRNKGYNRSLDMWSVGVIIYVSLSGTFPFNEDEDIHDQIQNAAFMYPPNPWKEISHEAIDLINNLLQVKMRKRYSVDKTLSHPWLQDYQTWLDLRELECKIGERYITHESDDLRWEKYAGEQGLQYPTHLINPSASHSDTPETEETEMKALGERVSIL
# GALR2 ag – GALR2 receptor agonists, primary screen, cell-based; Galanin receptor type 2 (Homo sapiens), O43603; GALR2-expressing cells, agonist activation read-out; activation, %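 (tested at 5 µM)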; hit rate 0.48% among 140,000; AID 803, 2007;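 active = above mean plus 3 SD of all compounds, about 5% in these data, not always enough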;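 note: 0% = vehicle buffer wells and 100% = reference agonist at full effect; tested in CHO reporter cells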
# RGS16-Gao – modulators of RGS16 binding to Galphao, primary screen, biochemical, human proteins, multiplexed bead flow cytometry; Regulator of G-protein signaling 16 (Homo sapiens) + Guanine nucleotide-binding protein …; bead-based flow cytometry RGS16-Galphao binding, fluorescence; actives lie on both sides; binding response (% of control), % at 10 µM; hit rate 0.38% among 220,000;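 active = below 25% or above 175%, edge rows of some plates excepted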;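 note: Galphao activated by GDP with aluminum fluoride before binding; 100% = wells without compound and 0% = beads without RGS; some results beyond the cut were filed as inactive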
# Insulin prom inh cell count – second read-out of Insulin prom inh, no call of its own (marks repeat the call); normalized cell count, %; measured here: cell count, toxicity; reference of the scale not given here;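 cells exposed to compound for 48 h; stained nuclei by imaging scaled within each plate; lower means fewer cells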
# HSV replic up primary fold – recorded beside HSV replic up, whose call it bears; fold increase; compound at 10 µM; measured here: primary screen fold increase 10 uM; tested in PC3 cells;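 GFP signal in the first replicate; 1 = infected wells without compound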
# * marks the source's active call; other numbers are inactive results; i = inactive; nt = no result given.
SMILES,HSV replic up,HSV replic up primary fold,Insulin prom inh,Insulin prom inh cell count,PKD1 inh,GALR2 ag,RGS16-Gao
Cc1cc(-c2ccc(/C=N/n3cnnc3)o2)ccc1Cl,i,0.99,-167,146,6,-1.3,102
CCOC(=O)c1c(NC(=O)c2ccc(C)cc2)sc2c1CC(C)(C)NC2(C)C,nt,nt,nt,nt,-3,nt,100
CC(C)NC(=S)Nc1ccc(Oc2ccccc2)cc1,i,0.98,-12,82,5,-2.3,100
O=[N+]([O-])c1ccc(Oc2ccc(F)cc2)c2ccncc12,i,0.71,55,115,-1,-1.3,102
CC1CCCC(NC(=O)COC(=O)Cc2ccsc2)C1C (stereo not given),i,1,-30,154,-3,-1.0,106
CN(C)Cc1c(O)ccc2c(-c3ccccc3)cc(=O)oc12,i,1,-13,86,-7,nt,113
Cc1ccc(NC(=S)/C(=C(\[O-])c2ccc(F)cc2)[n+]2ccccc2)cc1,i,0.95,7,103,-8,nt,105
CCN(CC)C(=O)c1c2c(nc3ccccc13)-c1ccccc1CC2,i,0.93,-41,80,-1,0.8,91
O=C(COc1ccc(Cl)cc1Cl)N/N=C/CCc1ccccc1,i,1.1,nt,nt,17,-2.0,70
Nc1ncnc2c1cnn2C1CCCCC1,i,1.1,nt,nt,nt,nt,100
CC1CN(C(=O)c2c(Br)cnn2C)CC(C)O1 (stereo not given),i,0.95,-44,137,-12,-0.1,103
CC(Nc1ccc2c(c1)OCCO2)C(=O)N1c2ccccc2CC1C (stereo not given),i,0.95,nt,nt,-3,nt,98
Cc1nc(-n2nnc(CO)c2CO)nc2c1CCC2,i,1,nt,nt,3,nt,99
CCC(c1nnnn1C(C)(C)C)N(Cc1ccco1)Cc1cc2cccc(C)c2[nH]c1=O (stereo not given),i,0.95,53,128,-5,1.1,97
O=C1CN(C(=O)c2cc([N+](=O)[O-])ccc2Cl)C(c2ccccc2)c2cc(F)ccc2N1 (stereo not given),i,0.88,-42,70,-1,0.5,47
O=C(COC(=O)C(O)c1ccccc1)NC12CC3CC(CC(C3)C1)C2 (stereo not given),i,0.96,32,71,7,-1.2,104
Clc1ccc2[nH]cc(-c3nnnn3-c3ccccc3)c2c1,i,0.85,nt,nt,-11,-2.3,111
Cc1[nH]nc(SCC(=O)NC2CCCCC2)c1[N+](=O)[O-],i,0.94,nt,nt,-5,nt,100
COc1cccc(N(C(=O)c2ccco2)c2nc(-c3sc(NC(=O)c4ccco4)nc3C)cs2)c1,i,0.67,32,180,1,-1.1,85
CCC(Sc1ncnc2sc(C)c(C)c12)C(=O)OC (stereo not given),i,0.75,-7,81,-3,-0.1,105
O=C(O)c1cc(-c2ccc3c(c2)OCO3)nc2ccc(Br)cc12,i,0.95,-58,70,-2,nt,100
COC(=O)c1cc(NC(=O)Nc2ccccc2OC)cc(C(=O)OC)c1,i,0.88,-12,108,-7,-1.5,107
NS(=O)(=O)c1cccc(NC(=O)c2cccs2)c1,i,0.94,nt,nt,nt,nt,99
C=CC12C=CC=CN1C(C(=O)OC)=C(C(=O)OC)C(C(=O)OC)=C2C(=O)OC (stereo not given),i,1.1,-12,81,-9,-1.9,104
Cc1ccc(S(=O)(=O)N(C)CC(=O)OCC(=O)c2c(N)n(C)c(=O)n(C)c2=O)cc1,i,1,nt,nt,6,0.1,99
COC(=O)c1cc(Sc2c(Cl)cccc2Cl)ccn1,i,0.96,nt,nt,-3,nt,101
Cc1ccc(OCCCC(=O)NCc2ccco2)c(C)c1,i,0.93,0,118,-4,nt,100
O=C(CN1CCOCC1)n1c2c(c3ccccc31)CCCC2,i,1.1,33,52,-6,nt,99
CCn1c(C2CC(=O)N(Cc3ccccc3)C2)nc2ccccc21 (stereo not given),i,0.88,nt,nt,3,-3.6,101
CC(=O)NCc1cccc(CNC(C)=O)n1,i,0.79,19,83,-3,0.6,97
CC(OC(=O)c1ccc2c(=O)n3c(nc2c1)CCC3)C(N)=O (stereo not given),i,0.93,18,53,-2,nt,114
COC(=O)Nc1nncs1,i,0.94,nt,nt,nt,nt,106
O=C1OCc2cc(NC(=O)C3COc4ccccc4O3)ccc21 (stereo not given),nt,nt,-40,91,-2,-0.9,100
Cc1ccc(Sc2c(C(=O)Nc3ccc(F)cc3F)c(C(F)(F)F)nn2C)cc1,i,0.83,nt,nt,-9,-1.4,100
CCc1cccc(Oc2nn[nH]n2)c1,i,1.4,-29,112,11,-0.3,125
CN1C(=O)C(O)(CC(=O)/C=C/C=C/c2ccccc2)c2ccccc21 (stereo not given),i,0.95,nt,nt,-12,-1.0,127
CCOc1ccc(NC2c3ccccc3C(=O)N2Cc2ccco2)cc1 (stereo not given),i,0.99,nt,nt,-3,-0.6,104
O=C(N/N=C/c1c(Cl)cccc1Cl)c1n[nH]c2c1CCCC2,i,0.89,nt,nt,-4,-1.0,78
Cc1cc(C)nc(NC(=O)CSc2ccccn2)n1,i,0.67,31,119,0,-0.9,108
COCc1cc(C2C(C(=O)c3ccco3)=C(O)C(=O)N2CCOCCO)ccc1O (stereo not given),i,1.1,-35,63,4,-0.7,101
COc1ccc(CC(=O)O/N=C(\N)Cc2ccc([N+](=O)[O-])cc2)cc1,i,0.98,nt,nt,nt,nt,102
Cc1c(NC(=O)OCc2ccccc2)c(=O)n(-c2ccccc2)n1C,i,0.93,nt,nt,2,-4.0,102
CNC(=S)NCC(O)c1ccc([N+](=O)[O-])cc1 (stereo not given),i,0.89,-18,74,3,nt,85
O=C(O)c1ccc(-c2cccc([N+](=O)[O-])c2)o1,i,1.1,nt,nt,nt,nt,97
O=C(CSc1ncc(-c2ccccc2)n1-c1ccccc1)NCc1ccco1,i,0.89,-3,134,-6,-0.9,105
S=C1NCN(C2CCCCC2)CN1Cc1ccccc1,i,0.92,nt,nt,0,-1.0,88
COc1ccccc1NC(=O)C1(C)Cc2ccccc2C(=O)O1 (stereo not given),i,1.1,14,169,-6,-0.4,99
Cc1ccc(SCC(=O)Nc2ccc(F)cc2[N+](=O)[O-])cc1C,i,0.92,-29,186,-6,-1.6,102
CCCCC(=O)NC(c1ccccc1OC)c1ccc2cccnc2c1O (stereo not given),i,0.64,nt,nt,nt,nt,95
Cc1ccnc(N2CCC(C(=O)Nc3ccc4c(c3)CCC4)CC2)n1,i,0.9,-73,122,2,-1.4,102
CN1C(=O)C(=O)N(CC(=O)N2CCc3ccccc32)C1=O,i,1,-4,72,-10,-0.5,101
c1ccc2nc(-c3ccncc3)ccc2c1,i,0.96,13,115,-10,-2.2,103
CCCCc1ccc(NC(=O)C2CCCO2)cc1 (stereo not given),i,0.92,66,61,-1,0.0,95
Cc1cc(C)cc(OCc2ccc(C(=O)N3N=C(C(F)F)CC3(O)C(F)F)o2)c1 (stereo not given),nt,nt,54,94,1,-2.4,112
CCOC(=O)c1c(C)[nH]c(C)c1C(=O)CSc1nc2ccccc2c(=O)n1-c1ccc(Cl)cc1,i,0.82,-7,80,0,1.8,97
Cc1ccc2nc(SCC(=O)Nc3c(F)cccc3F)[nH]c2c1,i,1,nt,nt,-7,nt,104
CC1=C/C(=N\NC(=O)c2ccc(O)cc2)CC1,i,0.94,nt,nt,-5,1.6,105
COc1ccc(CCNC(=S)NC(=O)c2ccc(Br)cc2)cc1OC,i,0.89,29,70,-6,nt,91
Cc1ccc(OCC(=O)N(Cc2ccccc2)C(C)C)c([N+](=O)[O-])n1,i,0.96,25,62,-3,-0.3,101
CSc1nnc([C@@H]2CCCN2C(=O)OC(C)(C)C)o1,i,0.93,nt,nt,0,nt,103
# Continued:
SMILES,HSV replic up,HSV replic up primary fold,Insulin prom inh,Insulin prom inh cell count,PKD1 inh,GALR2 ag,RGS16-Gao
Cc1cc(C(=O)N/N=C/c2ccc(N3CCOCC3)cc2)c(C)o1,i,0.98,-70,74,4,nt,102
COc1ccc(/C=C/C(=O)Nc2ccc3c(c2)CCC3)cc1OC,i,0.8,27,214,1,-0.2,103
CCc1ccc(NC(=O)C(C)OC(=O)c2ccc(NS(=O)(=O)c3ccc(C)c([N+](=O)[O-])c3)cc2)cc1 (stereo not given),i,0.7,-38,150,-15,-2.1,110
Cc1ccc(NC(=O)/C=C/c2ccc3c(c2)OCO3)nc1,i,0.99,45,147,-1,-1.3,95
COc1cccc(-c2nnc(NC(=O)c3ccc4ncsc4c3)o2)c1,i,0.94,0,62,8,-0.3,45
CC(C)CNC(=O)c1cc(-c2ccc(Cl)c(Cl)c2)on1,i,0.98,nt,nt,-16,-0.9,101
Fc1ccc(CSc2nncn2NCc2ccccc2)cc1,i,1.1,-428,51,-1,-1.3,110
COCCCn1c(SCC(=O)Nc2nc3ccccc3s2)nnc1-c1ccoc1C,i,0.9,23,132,-11,-3.0,101
CNc1cc(C)nc(-n2nc(C)cc2C)n1,i,0.84,43,175,8,-0.7,99
Cc1cc(C)cc(NC(=S)Nc2ccccn2)c1,i,0.87,37,109,-10,-2.3,104
O=C(CSc1nnc(-c2ccc(S(=O)(=O)N3CCCC3)cc2)o1)NCC1CCCO1 (stereo not given),i,1,nt,nt,1,nt,100
O=C1[C@@H]2CSCN2C(=O)CN1CCc1cccc(F)c1,i,1.1,nt,nt,-7,-1.2,111
O=C(CSc1nnc(-c2ccncc2)o1)c1cccc([N+](=O)[O-])c1,i,1.1,nt,nt,-94,nt,101
CCC(C)NC(=O)CSC1=Nc2ccccc2C2=NC(CCC(=O)NCc3ccco3)C(=O)N12 (stereo not given),i,0.89,-19,131,-7,-5.0,97
COc1ccc(/C=C/C(=O)c2cc(Br)ccc2OC(=O)c2ccco2)cc1OC,i,0.57,-21,41,-1,2.5,54
CCc1ccc(OCC(O)CNC(C)(C)C)cc1 (stereo not given),i,1.1,19,132,-1,-1.2,112
Cc1occc1C(=O)N/N=C/c1c[nH]c2ccccc12,i,0.93,23,36,-3,-1.9,101
CC(C)(C)c1ccc(C(=O)N2CCCC2)s1,i,0.96,nt,nt,nt,nt,98
O=C(c1ccc([N+](=O)[O-])cc1)N(Cc1ccc(Br)cc1)N1C(=O)CCCC1=O,i,0.85,33,115,-6,-0.5,103
CCOC(=O)c1cccnc1SCc1cc(=O)n2ccccc2n1,i,1.2,nt,nt,-5,-3.2,103
CCCCn1nnnc1SCC(=O)c1ccc(C)c(C)c1,i,0.85,-23,98,7,-1.6,103
Cc1ccc2nc(-c3ccccc3)c(-c3ccccc3)nc2c1,i,1.1,nt,nt,-2,nt,107
CCOC(=O)CSc1ncnc2c1nnn2-c1ccc(F)cc1,i,1,-73,109,-1,-1.7,101
CCN1C(=O)/C(=C/C2=Cc3ccccc3OC2C)SC1=S (stereo not given),i,1.2,nt,nt,nt,nt,99
COc1ccc(CN2C(=S)NC(C)(C)CC2(C)O)cc1 (stereo not given),i,0.97,-19,137,-10,-0.4,107
CC(C)OCCCNC(=O)c1c(N)n(/N=C/c2cccs2)c2nc3ccccc3nc12,nt,nt,-13,168,-5,3.0,105
COCc1cc(=O)n2[nH]c(C(F)(F)F)nc2n1,i,1,3,125,-5,0.1,86
O=C(NCc1ccccc1)C1CCN(S(=O)(=O)c2cccc3cccnc23)CC1,i,0.99,nt,nt,-7,-0.8,102
Cc1ccc(C(c2sc3nc(C)nn3c2O)N2CCN(C(=O)c3ccco3)CC2)cc1 (stereo not given),i,0.85,-43,77,0,2.0,23*

# Reformatted with two lines to a compound: entries from further up
# The line under a structure holds: HSV replic up	HSV replic up primary fold	Insulin prom inh	Insulin prom inh cell count	PKD1 inh	GALR2 ag	RGS16-Gao
COc1ccc(CC(=O)O/N=C(\N)Cc2ccc([N+](=O)[O-])cc2)cc1
    i	0.98	nt	nt	nt	nt	102
O=C1OCc2cc(NC(=O)C3COc4ccccc4O3)ccc21 (stereo not given)
    nt	nt	-40	91	-2	-0.9	100
COc1ccc(CN2C(=S)NC(C)(C)CC2(C)O)cc1 (stereo not given)
    i	0.97	-19	137	-10	-0.4	107
COC(=O)c1cc(Sc2c(Cl)cccc2Cl)ccn1
    i	0.96	nt	nt	-3	nt	101
Cc1ccc(Sc2c(C(=O)Nc3ccc(F)cc3F)c(C(F)(F)F)nn2C)cc1
    i	0.83	nt	nt	-9	-1.4	100
CN(C)Cc1c(O)ccc2c(-c3ccccc3)cc(=O)oc12
    i	1	-13	86	-7	nt	113
